miR-21 reporter: qHTS Assay for Modulators of miRNAs and/orActivators of miR-21; HeLa miR-21 FLuc reporter, luciferase, 48 h; Potency, µM (top dose mostly 38.3 µM), for the others: at the top dose reporter change, positive = more light; 340,000 tested, under 10 active; AID 2288, 2010; active = well fitted rising curve with a large enough effect; inconclusive = small, poorly fitted or top-dose-only effect; inactive = no such curve, though single readings can be large or run the other way;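 also: % of control where 0% means no effect; miR-21 action dims this reporter so a rising signal means less miR-21 action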
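HeLa cells endogenously expressing miR-21, stably carrying CMV-driven firefly luciferase with a downstream miR-21 binding site, 2000 cells/well. Titrations up to approximately 40 uM, 48 hours; luciferase luminescence read.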
Rango release inh: qHTS Assay for Inhibitors of RanGTP induced Rango (Ran-regulated importin-beta cargo) - Importin beta complex dissociation; hit rate 0.071% among 340,000; AID 540253, 2011; Snurportin-1 (Homo sapiens) + GTP-binding nuclear protein Ran (Homo sapiens) + Importin …; Biochemical FRET Rango-importin beta, RanGTP-induced dissociation; Potency, µM (highest dose often 46.1 µM), inactives show top-dose activity change, negative = inhibition; active means falling FRET ratio curve, often poorly fitted, with flat reads before Ran was added; inconclusive means other falling curves, or compound fluorescence or quenching; inactive means flat or rising ratio curve;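 also: potency is read from the fitted curve at half-maximal effect; % of control where 0% means no effect; nearly all actives have a fitted effect of over 45% in size; -100% = wells without RanGTP and RCC1; the record marks most hits as doubtful in a second field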
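Compounds preincubate 5 min with complex of recombinant Rango and importin beta in PBS with 1 mM DTT. Ran (0.6 uM) loaded with 2 mM GTP plus 0.2 uM RCC1 starts dissociation; FRET is recorded 45 min later.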
GLA inh pH 4.5: qHTS Assay for Inhibitors of Human alpha-Galactosidase at pH 4.5; activity change, negative = inhibition, % at 105 µM; purified enzyme, 4-MU-alpha-Gal fluorescence, pH 4.5; AID 1467, 2008; Alpha-galactosidase A (Homo sapiens), P06280; 230,000 tested, under 10 active; inconclusive = small, poorly fitted or top-dose-only inhibition, or a rising curve; inactive = flat fitted curve, though single readings scatter; no compound was filed as active;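 also: 0% = full activity with enzyme and -100% = basal without enzyme; dose as in the result columns while the protocol names 77 µM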
Rango complex inh: qHTS Assay for Inhibitors of Rango (Ran-regulated importin-beta cargo) - Importin beta complex formation. hit rate 0.031% among 340,000. Potency, µM (series often up to 92.2 µM), for the others: at the top dose inhibition of complex formation. Rango CFP/YFP FRET sensor + importin beta, 45 min. Importin subunit beta-1 (Homo sapiens), Q14974; active = rising FRET ratio curve, often small or poorly fitted; inconclusive = mostly compound fluorescence or quenching in the first reads; inactive = flat curves in all reads;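 also: potency is read from the fitted curve at half-maximal effect; 0% = DMSO wells and 100% = buffer wells lacking importin beta; nearly all actives have a fitted effect of over 15% in size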
Target sequence (Q14974 whole entry, looked up): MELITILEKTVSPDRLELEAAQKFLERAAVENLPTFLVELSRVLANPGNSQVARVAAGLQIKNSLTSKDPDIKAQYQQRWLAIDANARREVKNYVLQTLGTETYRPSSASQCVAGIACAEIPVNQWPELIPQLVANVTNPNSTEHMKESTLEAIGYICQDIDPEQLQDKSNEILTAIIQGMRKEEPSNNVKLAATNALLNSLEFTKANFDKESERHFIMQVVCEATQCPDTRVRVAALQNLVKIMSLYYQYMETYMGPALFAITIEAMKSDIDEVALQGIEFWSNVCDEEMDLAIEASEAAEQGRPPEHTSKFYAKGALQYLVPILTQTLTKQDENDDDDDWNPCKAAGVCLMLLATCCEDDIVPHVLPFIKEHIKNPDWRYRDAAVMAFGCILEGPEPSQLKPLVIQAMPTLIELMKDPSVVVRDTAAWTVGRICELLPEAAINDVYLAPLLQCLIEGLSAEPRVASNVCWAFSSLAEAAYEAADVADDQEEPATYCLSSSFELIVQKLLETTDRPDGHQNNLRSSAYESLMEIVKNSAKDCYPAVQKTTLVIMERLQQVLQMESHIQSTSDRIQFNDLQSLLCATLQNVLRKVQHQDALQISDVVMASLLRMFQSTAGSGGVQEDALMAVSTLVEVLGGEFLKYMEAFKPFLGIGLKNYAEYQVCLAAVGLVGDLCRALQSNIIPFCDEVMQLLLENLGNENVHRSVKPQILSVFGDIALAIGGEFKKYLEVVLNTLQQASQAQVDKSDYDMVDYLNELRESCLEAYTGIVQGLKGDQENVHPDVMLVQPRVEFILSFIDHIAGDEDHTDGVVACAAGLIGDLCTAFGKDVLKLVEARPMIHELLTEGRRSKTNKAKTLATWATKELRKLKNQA
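Inhibition scored from the CFP 486 nm/YFP 530 nm FRET ratio 45 min after adding 0.125 microM importin beta to 50 nM Rango biosensor preincubated 5 min with compound (room temperature, PBS with DTT, Tween-20, BSA). No-importin wells as positive control.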
Active calls of the source: *; ? = inconclusive; / = no result given; & = joins results of further samples.

Values run as follows: GLA inh pH 4.5	Rango complex inh	Rango release inh	miR-21 reporter
Cc1cc(NC(=O)C(C)SCC(=O)OCc2ccc([N+](=O)[O-])cc2)no1 (centres undefined)
  /	3.4%	15.0%	/
CCn1c(SCC(N)=O)nc2ccccc2c1=O
  1.9	-0.4%	14.1%	-10.4%
O=C(NNC(=S)Nc1cccc(C(F)(F)F)c1)c1ccc(Cl)cc1Cl
  -4.6	3.5%	5.5%	25.3%
CCNS(=O)(=O)c1ccc(NC(=O)c2c(-c3ccccc3)noc2C)cc1
  -3.2	-2.0%	-13.9%	0.2%
Nc1nc(NCC2CCCO2)nc(Nc2cccc(Cl)c2)c1[N+](=O)[O-] (centres undefined)
  -0.9	2.9%	3.2%	-3.9%
COc1cccc(CN(C)C(=O)c2ccc(COc3ccc(Cl)cc3)cc2)c1OC
  /	2.3%	-1.5%	-38.0%
COC(=O)c1ccc(NC(=O)c2ccc[n+]([O-])c2)cc1
  /	-2.4%	1.3%	-3.3%
CCC(Cc1ccccc1)NC(=O)/C=C/c1ccco1 (centres undefined)
  /	1.8%	3.2%	-7.5%
CCOCCCNC(=O)CNC(=S)N(Cc1ccccc1F)C1CCCCC1
  1.0	5.3%	3.1%	7.2%
COC(=O)c1ccc(/C=N/OCC(=O)Nc2cc(F)ccc2F)cc1
  -4.1	2.7%	8.4%	-0.3%
Oc1ccc(-c2[nH]ncc2-c2cccc3cccnc23)c(O)c1
  -0.4	-3.0%	-6.5%	5.9%
CCCCCCCC(=O)NNC(=O)CC(=O)Nc1ccccc1C(=O)O
  1.0	1.7%	18.4%	-1.6%
O=C(Nc1ccccc1)C1C(c2ccccc2)C1(Cl)Cl (centres undefined)
  /	-2.2%	0.2%	22.2%
CC(Sc1nncs1)C(=O)Nc1ccc(S(=O)(=O)Nc2ncccn2)cc1 (centres undefined)
  /	1.9%	-19.6%	/
CC(C)(Oc1ccc(Cl)cc1)C(=O)NNC(=O)c1ccc(Br)o1
  /	-0.8%	-16.6%	-8.5%

Brought forward from above: 6 entries; new compounds follow.
Values run as follows: GLA inh pH 4.5	Rango complex inh	Rango release inh	miR-21 reporter
COC(=O)c1ccc(/C=N/OCC(=O)Nc2cc(F)ccc2F)cc1
  -4.1	2.7%	8.4%	-0.3%
Oc1ccc(-c2[nH]ncc2-c2cccc3cccnc23)c(O)c1
  -0.4	-3.0%	-6.5%	5.9%
CCCCCCCC(=O)NNC(=O)CC(=O)Nc1ccccc1C(=O)O
  1.0	1.7%	18.4%	-1.6%
O=C(Nc1ccccc1)C1C(c2ccccc2)C1(Cl)Cl (centres undefined)
  /	-2.2%	0.2%	22.2%
CC(Sc1nncs1)C(=O)Nc1ccc(S(=O)(=O)Nc2ncccn2)cc1 (centres undefined)
  /	1.9%	-19.6%	/
CC(C)(Oc1ccc(Cl)cc1)C(=O)NNC(=O)c1ccc(Br)o1
  /	-0.8%	-16.6%	-8.5%
O=C(Nc1ccc2ccccc2n1)c1ccccc1Br
  /	1.9%	8.2%	-35.3%
O=c1oc2ccc(C#CC3(O)CCCCC3)cc2cc1-n1cc(-c2ccsc2)nn1
  /	0.4%	-6.3%	/
COc1ccc2nc(N3CCC(C)CC3)c(C#N)cc2c1
  -3.9	?	?	-44.7%
CCOc1ccc(N(CC(=O)NCCOc2ccccc2OC)S(=O)(=O)c2ccccc2)cc1
  /	0.6%	-8.7%	18.8%
C=CCNC(=S)NNC(=O)c1ccc(=O)n(Cc2ccccc2)c1
  0.9	0.2%	11.0%	-6.1%
Cc1ccc(NC(=O)Nc2ccccc2C#N)c(Cl)c1
  2.3	3.9%	-1.6%	-3.3%
N#Cc1ccc(OCc2nnc(SCC(=O)c3ccccc3)n2-c2ccccc2)cc1
  -7.4	-2.3%	3.4%	-1.0%
O=C(NCc1ccccc1)C1=C[C@@H](c2ccccc2)C[C@@H](OCc2ccc(CO)cc2)O1
  -17.9	-2.1%	1.5%	-12.4%
C=CCSc1ncnc2c1oc1nc3c(cc12)COC(C)(C)C3
  -7.6	-2.0%	-0.7%	-24.6%
COc1ccc(-c2cn[nH]c2N)cc1
  14.7	-3.4%	3.3%	4.9%
O=C(c1cc(-c2ccco2)on1)N1CCOCC1
  2.0	-0.1%	-3.7%	-39.4%
CCCCNC(=O)NC(C(=O)OC)C12CC3CC(CC(C3)C1)C2 (centres undefined)
  1.0	-1.5%	9.4%	-0.6%
COc1cccc(CSc2nnc(-c3ccncc3)n2N)c1
  /	0.3%	10.3%	3.1%
COc1cc(/C=C2\SC(=S)N(NC(C)=O)C2=O)ccc1OC(=O)c1ccco1
  /	4.9%	-13.9%	/
C=CCNc1nc(-c2ccc([N+](=O)[O-])cc2)cs1
  4.3	1.9%	-10.3%	-27.3%

An excerpt from above in order of their number in GLA inh pH 4.5, low to high.
SMILES	GLA inh pH 4.5	Rango complex inh	Rango release inh	miR-21 reporter
O=C(NCc1ccccc1)C1=C[C@@H](c2ccccc2)C[C@@H](OCc2ccc(CO)cc2)O1	-17.9	-2.1%	1.5%	-12.4%
C=CCSc1ncnc2c1oc1nc3c(cc12)COC(C)(C)C3	-7.6	-2.0%	-0.7%	-24.6%
N#Cc1ccc(OCc2nnc(SCC(=O)c3ccccc3)n2-c2ccccc2)cc1	-7.4	-2.3%	3.4%	-1.0%
COc1ccc2nc(N3CCC(C)CC3)c(C#N)cc2c1	-3.9	?	?	-44.7%
CCCCNC(=O)NC(C(=O)OC)C12CC3CC(CC(C3)C1)C2 (centres undefined)	1.0	-1.5%	9.4%	-0.6%
Cc1ccc(NC(=O)Nc2ccccc2C#N)c(Cl)c1	2.3	3.9%	-1.6%	-3.3%
COc1ccc(-c2cn[nH]c2N)cc1	14.7	-3.4%	3.3%	4.9%

Further compounds:
Values run as follows: GLA inh pH 4.5	Rango complex inh	Rango release inh	miR-21 reporter
O=C(OCc1cccc(C(F)(F)F)c1)c1cc([N+](=O)[O-])ccc1N1CCOCC1
  /	-1.8%	-2.8%	/
Cc1[nH]c(C)c(S(=O)(=O)N2CCN(c3ccc(Cl)cc3)CC2)c1C(=O)N1CCCC1
  /	-1.0%	-2.6%	-4.3%
O=S(=O)(O)c1cc2onnc2c2ccccc12
  /	?	-4.1%	/
COc1ccc(-c2csc(NC(=O)c3cccc(S(=O)(=O)N4CCN(C)CC4)c3)n2)cc1
  0.9	0.7%	2.0%	23.8%
O=C(Nc1ccc2c(c1)OCO2)c1ccc(COc2ccc3c(c2)CCC3)o1
  -19.1	?	-2.3%	-38.8%
COC(=O)c1cn(CC(=O)N2C(C)CCCC2C)c2ccccc12 (centres undefined)
  -6.6	-1.1%	-12.0%	-1.1%
CCCc1nnc(SCC(=O)Nc2ccccc2Cl)n1CC1CCCO1 (centres undefined)
  /	1.1%	0.8%	-1.3%
CC(C)Cn1c2c(c(O)c(C(=O)Nc3ncccc3O)c1=O)CCCC2
  -3.0	-2.1%	0.2%	6.3%
CCOc1ccc(N2CC(=O)N/C2=N\c2nc(C)cc(C)n2)cc1
  2.0	?	19.1%	-11.1%
O=c1[nH]c(Nc2ccc(F)cc2)cc2ccccc12
  6.4	?	?	-11.7%
Cc1ccc(-c2csc3ncnc(Oc4cccc5ccc(C)nc45)c23)cc1
  -25.3	-0.4%	2.4%	0.1%
Cc1onc(-c2c(F)cccc2Cl)c1C(=O)OCc1cnc(Cl)s1
  -10.3	-2.1%	-1.0%	-6.7%
S=C(Nc1ccccc1Cl)N1CCN(c2ccccn2)CC1
  /	-0.1%	-10.7%	14.6%
COc1cc(NC(=O)CCNC(=O)Cn2cnc3ccccc3c2=O)cc(OC)c1OC
  -0.2	2.0%	23.1%	-7.9%&-1.1%
C=CCOc1ccc(/C=N/NC(C)=O)cc1OCC
  1.6	-2.9%	0.7%	-5.3%
COc1ccc(NCc2nnc(SCCN3CCCCC3)n2-c2ccc(C)cc2)cc1
  1.3	1.4%	-1.0%	-3.3%
CCCOc1ccc(N2C(=O)CC(NCCNc3ccc([N+](=O)[O-])cn3)C2=O)cc1 (centres undefined)
  -10.8	-0.9%	-12.1%	0.9%
O=C1CCCC2=C1C(c1ccc(Cl)cc1)N1C(=O)CCSC1=N2 (centres undefined)
  -5.9	0.1%	-16.7%	1.1%
COc1ccc(-n2ncc3c2CC(C)(C)CC3NC(=O)c2oc(C)cc2C)cc1 (centres undefined)
  /	0.5%	-2.0%	-5.7%
O=C(CCCCC(=O)Sc1ccccc1)Sc1ccccc1
  /	5.0%	2.9%	/
Oc1c(Br)cc(Br)cc1C=Nc1ccc2[nH]ncc2c1
  -2.0	?	?	11.1%
CC(C)(C)C1c2[nH]c3ccccc3c2CCN1CCCn1cccn1 (centres undefined)
  -11.3	-4.6%	-11.3%	1.7%
COc1ccc(N2CCN(C(=O)c3c(-c4c(F)cccc4Cl)noc3C)CC2)cc1
  /	-2.4%	1.7%	9.3%
COc1ccc(OCc2cc(C(=O)N3CCOCC3)no2)c(Cl)c1
  /	-2.9%	-6.2%	-61.0%
Cc1ncc(CN2CCC(C(=O)Nc3ccc(-n4cccn4)cc3)CC2)s1
  /	0.8%	-1.2%	-6.6%
Cc1c(N=Cc2nc3ccccc3[nH]2)c(=O)n(-c2ccccc2)n1C
  8.0	1.6%	18.6%	-3.4%
O=C(CCN1C(=O)C2C3C=CC(C3)C2C1=O)NC1CCCCC1 (centres undefined)
  /	-0.3%	0.8%	-6.4%
COc1ccc(S(=O)(=O)Nc2c(C)nc3nc[nH]n3c2=O)cc1
  2.9	3.7%	-14.1%	0.6%&0.2%
CCc1ccc(C(=O)N2CCN(c3ccc(NC(=O)c4ccco4)cc3)CC2)cc1
  /	?	-0.3%	4.5%
CCn1c2ccccc2c2cc(NC(=O)C(C)Oc3ccccc3)ccc21 (centres undefined)
  -6.7	-0.3%	-8.4%	-0.1%
CCCC(C(=O)NCCc1ccc(S(N)(=O)=O)cc1)c1ccccc1 (centres undefined)
  /	0.0%	10.5%	0.9%
COc1ccc(OC)c(CNC(=O)Cn2nc(C)c3c(C)n(-c4ccc(C)cc4)nc3c2=O)c1
  /	-2.9%	-0.5%	4.8%
Cc1nc2c(C#N)c[nH]n2c(=O)c1Cc1ccccc1
  5.3	-5.9%	0.1%	0.0%
CCCC[C@@H]1CNC(=O)C(=O)N1CCc1cc(C(F)(F)F)cc(C(F)(F)F)c1
  -5.4	1.1%	7.1%	-0.6%
CCOC(=O)/C=C/[C@H]1Cc2ccccc2CO1
  /	-0.9%	-7.7%	/
CC(Oc1ccc(Br)cc1)C(=O)NCCCN1CCCC1=O (centres undefined)
  /	-4.3%	-13.7%	/
O=C(O)Cc1ccc2oc(-c3cccnc3)nc2c1
  3.5	-1.5%	-0.3%	2.0%
Cc1csc(NC(=O)C2CCCCC2)n1
  /	-3.8%	-21.3%	-39.7%
CCCc1cc(=O)[nH]c(SCCN2C(=O)c3ccccc3C2=O)n1
  -0.4	-5.9%	-41.0%	-0.3%
Cc1sc2nc(SCC(=O)O)[nH]c(=O)c2c1C
  2.7	0.2%	0.7%	-0.9%
C=CCOc1cccc(C(=O)Nc2ncn[nH]2)c1
  /	-0.4%	1.6%	-5.4%
CC(C)NC(=O)c1onc(CSc2ccc(C(C)C)cc2)c1C(=O)O
  4.9	-3.1%	15.3%	8.8%
Cc1nc(CN2CCN(C(=O)CCc3nnc(Cc4c[nH]c5ccccc45)o3)CC2)cs1
  3.0	-0.5%	-1.3%	-4.6%
CCOC(=O)CNc1c(N2CCN(c3ccccn3)CC2)c(=O)c1=O
  1.1	2.3%	0.2%	-3.1%
CCOc1cc(NC(=S)NCCOC)c(OCC)cc1NC(=O)c1cccs1
  -4.3	2.8%	-11.3%	4.8%

This is a subset (hit frequency here may not be typical).
